Bioassay records as filed in PubChem.
HSV augment: HSV replication enhancement; HSV replication augmentation in cells, fold increase; maximum fold increase; AID 1956; actives 0.005% (n = 220,000);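 active = peak rise of 1.5-fold or more in the series; tested in PC3 cells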;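 note: first round at 10 µM; read as green reporter fluorescence; hits show the peak of a series up to 25 µM; 1 = signal of infected wells without compound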
GALR2 ag: GALR2 (human) receptor agonism | O43603 | GALR2-expressing cells, agonist activation read-out | activation, %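 (tested at 5 µM)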 | actives 0.48% (n = 140,000);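 active = above mean plus 3 SD of all compounds, about 5% in these data, not always enough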;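 note: 0% = vehicle buffer wells and 100% = reference agonist at full effect; tested in CHO reporter cells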
Target sequence (O43603 whole entry, looked up): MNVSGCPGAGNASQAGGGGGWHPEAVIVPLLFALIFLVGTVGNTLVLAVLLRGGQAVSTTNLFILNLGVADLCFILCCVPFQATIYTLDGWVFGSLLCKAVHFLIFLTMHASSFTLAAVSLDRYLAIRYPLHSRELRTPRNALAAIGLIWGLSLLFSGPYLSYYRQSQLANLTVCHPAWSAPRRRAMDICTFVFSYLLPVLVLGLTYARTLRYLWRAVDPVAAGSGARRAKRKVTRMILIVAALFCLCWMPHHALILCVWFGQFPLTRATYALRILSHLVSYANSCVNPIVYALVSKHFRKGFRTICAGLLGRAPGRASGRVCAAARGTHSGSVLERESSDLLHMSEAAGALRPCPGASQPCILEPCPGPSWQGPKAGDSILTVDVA
PKD1 inh: blocks activity of human protein kinase D1 | PKD1 kinase fluorescence polarization assay | inhibition, %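 (about 10 µM by stock and volumes)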 | actives 0.056% (n = 200,000);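 active = inhibition of 50% or more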;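 note: controls were vehicle for no effect and a reference inhibitor for full effect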
RGS16-Gao: modulates binding between human RGS16 and Galphao | actives 0.38% (n = 220,000) | bead-based flow cytometry RGS16-Galphao binding, fluorescence; actives lie on both sides | binding response (% of control), % at 10 µM;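 active = below 25% or above 175%, edge rows of some plates excepted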;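 note: Galphao activated by GDP with aluminum fluoride before binding; 100% = wells without compound and 0% = beads without RGS; some results beyond the cut were filed as inactive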
Target sequence (O15492 whole entry, looked up): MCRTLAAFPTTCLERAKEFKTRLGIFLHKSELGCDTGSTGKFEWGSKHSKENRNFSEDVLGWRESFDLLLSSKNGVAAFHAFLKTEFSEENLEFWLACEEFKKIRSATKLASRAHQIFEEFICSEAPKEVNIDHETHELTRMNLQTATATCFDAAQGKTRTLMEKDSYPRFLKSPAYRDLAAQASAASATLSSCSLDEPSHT
Target sequence (P09471 whole entry, looked up): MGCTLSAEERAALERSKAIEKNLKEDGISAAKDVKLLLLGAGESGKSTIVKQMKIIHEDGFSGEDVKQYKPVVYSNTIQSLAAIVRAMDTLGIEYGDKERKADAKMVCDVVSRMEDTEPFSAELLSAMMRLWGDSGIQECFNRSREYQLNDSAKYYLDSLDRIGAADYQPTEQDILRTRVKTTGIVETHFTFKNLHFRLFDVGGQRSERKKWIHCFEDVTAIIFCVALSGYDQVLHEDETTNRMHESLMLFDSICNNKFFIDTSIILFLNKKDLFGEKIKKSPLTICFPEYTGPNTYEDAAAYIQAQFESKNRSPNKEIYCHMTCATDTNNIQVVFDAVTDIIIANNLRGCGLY
Insulin prom inh: TRM-6 insulin promoter activity inhibition; AID 1273; actives 0.9% (n = 130,000); inhibition, % at 2 µM; TRM-6 cells (human fetal islet line), insulin promoter-eGFP reporter, imaging; reporter expression induced with tamoxifen;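 active = inhibition above the mean plus 3 SD, with well images judged a real hit on visual review, cut at about 60% in these data, passing the limit was not always enough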
Insulin prom inh cell count: further read-out of Insulin prom inh, marked with its call; normalized cell count, %; measured here: cell count, toxicity; reference of the scale not given here;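 cells exposed to compound for 48 h; stained nuclei by imaging scaled within each plate; lower means fewer cells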
HSV augment primary fold: second read-out of HSV augment, no call of its own (marks repeat the call); fold increase; compound at 10 µM; measured here: primary screen fold increase 10 uM; tested in PC3 cells;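 GFP signal in the first replicate; 1 = infected wells without compound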
Active calls of the source: *; i = inactive; . = not tested or not shown. Compounds as they come. Share with any hit: about 1.3%.

cpd	canonical_smiles	HSV augment	HSV augment primary fold	GALR2 ag	PKD1 inh	RGS16-Gao	Insulin prom inh	Insulin prom inh cell count
1	O=C1Nc2ccccc2S/C1=C/NCc1ccccc1Cl	i	0.98	.	-4.1	110.3	63.6	132.2
2	CC(C)CNC(=O)CCc1c[nH]c2ccccc12	i	1	-0.9	-5.1	111.2	13.2	101.9
3	Cc1cnccc1CN(C)Cc1cn(C)nc1-c1cccc(Cl)c1	i	0.91	.	-0.1	88.2	-23.8	82.0
4	O=C(c1ccncc1)N1N=C2CCCCCC2C1(O)C(F)(F)F (stereo not given)	i	0.87	.	-3.2	92.3	-7.1	127.3
5	CC1CCCCC1NC(=O)C1CCN(S(=O)(=O)c2cccc3nsnc23)CC1 (stereo not given)	i	1	-4.2	0.5	99.6	0.0	76.7
6	CN(C)c1cccc(C(=O)NCc2ccccc2Cl)c1	i	0.93	.	4.9	97.2	.	.
7	COc1ccc(Cl)cc1NC(=O)CN(C)CC(=O)Nc1ccccc1-c1ccccc1	i	1	.	-9.6	101.8	.	.
8	O=C(Oc1cccc2c(O)cccc12)c1ccccc1	i	1.13	-0.7	5.7	102.7	.	.
9	O=C(/C=C/c1ccc(OCCCF)cc1)NCc1ccc(Cl)cc1	.	.	0.0	-9.4	95.2	-222.6	128.6
10	CC(O)C1CCC2C3CC[C@H]4CC(O)CCC4(C)C3CC3(OCCO3)C12C (stereo not given in full)	i	1.29	-1.1	0.3	108.5	8.3	136.6
11	O=C(NC(=S)NC1CCCc2ccccc21)c1ccco1 (stereo not given)	i	0.93	.	5.7	101.4	.	.
12	Cc1nc2ccccc2n1C1CCN(C(=O)Nc2ccccc2)CC1	i	0.78	.	3.2	86.9	.	.
13	O=c1[nH]c2ccccc2[n+]([O-])c1-c1ccccc1	i	0.81	.	-9.9	106.4	33.3	133.9
14	NC(=O)C1CCN(c2nnnn2-c2ccccc2)CC1	i	0.89	-3.2	-2.9	102.5	30.4	110.0
15	CCOC(=O)CC1COCCN1Cc1cn(C)nc1-c1ccccc1F (stereo not given)	i	1.11	.	-3.6	108.7	26.7	91.5
16	COC(=O)/C(=C\C(=O)c1ccccc1)Nc1ccc(OC)cc1	i	0.88	.	.	104.1	.	.
17	COc1ncnc2sc3c(c12)CCCC3	i	0.87	-0.9	-5.8	102.2	-7.7	73.3
18	CCCCn1c(-c2csc(C(C)C)c2)n[nH]c1=S	i	0.91	-0.2	1.5	37.9	-16.7	107.1
19	NC(=O)c1ccccc1OCC(=O)NS(=O)(=O)c1ccc(Cl)cc1	i	0.95	-2.6	-6.4	104.0	43.7	92.2
20	Nc1nc(-c2cc(Cl)cc(Cl)c2OC(F)F)cs1	i	1	.	-6.8	90.3	41.2	101.1
21	CC(=O)Nc1ccc(CN2CCN(Cc3ccc(F)c(F)c3)C(CCO)C2)cc1 (stereo not given)	i	0.85	.	-0.9	96.9	.	.
22	COc1cc2c(cc1OC)CN(C(=O)NS(=O)(=O)c1ccc(C)cc1)CC2	i	0.97	-1.1	-7.1	99.6	.	.
23	CCCNC(=O)Cn1cnc2sc(C(=O)NCCN(CC)CC)c(C)c2c1=O	i	0.92	-0.4	3.6	103.1	.	.
24	O=[N+]([O-])c1cc(S(=O)(=O)N2CCCC2)ccc1NCCc1ccccc1	i	0.86	-2.3	-9.7	110.1	-32.5	74.2
25	CCOC(=O)c1cc(-c2cc3ccccc3o2)nc2c1c(=O)[nH]c(=O)n2CCOC	i	0.98	-0.6	1.1	98.5	2.8	125.9
26	O=C(O)C1CCCCC1C(=O)Nc1ccc(Cl)cc1Cl (stereo not given)	i	0.71	-1.4	-7.6	89.9	.	.
27	Nc1c(Cl)cc(Cl)cc1C(=O)OCC(=O)N1CCCC1	i	0.69	-1.4	-1.9	4.0*	0.0	122.9
28	CCOC(=O)NC1(NCc2ccccc2)Oc2ccccc2O1	i	0.83	-1.8	-4.4	92.5	-66.7	154.2
29	COC(=O)c1ccc(S(N)(=O)=O)o1	i	1.13	0.0	-8.0	100.1	.	.
30	Cc1ccc(NC(=O)C(=O)NNC(=O)c2ccccc2C)cc1Cl	.	.	-2.6	-1.3	104.0	22.6	109.0
31	CCCC(=O)Nc1ccc(NC(=O)c2ccco2)c(OC)c1	i	0.87	0.1	-11.5	110.6	-15.2	88.9
32	O=C(CCCOc1ccccc1)NCCc1ccccc1	i	1.16	.	6.6	103.4	-27.8	55.0
33	CCOc1ccc2oc(C(=O)OC(C(=O)NC(N)=O)C(C)C)c(C)c2c1 (stereo not given)	i	1.02	.	.	99.0	.	.
34	CCOc1ccc(NC(=O)N2CCC(c3nc4ccccc4[nH]3)CC2)cc1	i	0.98	.	2.3	104.3	-6.2	101.7
35	COc1cc(/C=N/NC(=O)c2ccc(Cl)c(S(N)(=O)=O)c2)ccc1OCC(N)=O	i	1.16	.	.	85.9	.	.
36	N#CC(C(=O)c1ccco1)c1ccccn1 (stereo not given)	i	0.93	-2.1	-10.4	99.2	22.2	136.8
37	Cc1ccc(S(=O)(=O)N2CCOCC2)cc1C(=O)OCC(=O)NC1CCS(=O)(=O)C1 (stereo not given)	i	0.89	-0.9	-4.8	107.2	46.9	103.6
38	COC(=O)/C(=C/Nc1ccccc1)[N+](=O)[O-]	i	0.73	-2.2	20.1	97.8	50.0	75.7
39	CCCCCCOC(=O)C[N+](C)(C)CCOC1CC2CCC1(C)C2(C)C (stereo not given)	i	0.5	-4.1	10.5	97.2	-26.9	113.6
40	CCOC(=O)C(C)Sc1nnc(Cc2cc(=O)[nH]c(=O)[nH]2)n1-c1ccc(Cl)cc1 (stereo not given)	i	1.06	-0.5	-4.9	104.3	.	.
41	CCOC(=O)c1[nH]c2ccc(Br)cc2c1NC(=O)CCN1CCN(C(=O)OCC)CC1	i	0.987	-2.4	-2.9	107.2	.	.
42	COc1ccccc1CCNS(=O)(=O)c1cn(C)c(=O)n(C)c1=O	i	1.02	.	.	101.8	.	.
43	Cn1cnc2cc(NC(=O)c3ccco3)ccc21	i	0.94	-2.2	-8.2	103.7	-42.9	120.0
44	CCCCn1c(=O)c(CCC(=O)OC(C)C(=O)Nc2cccc(Cl)c2Cl)nc2ccccc21 (stereo not given)	i	1.06	-0.3	-2.3	106.1	.	.
45	CCN(CC)S(=O)(=O)c1ccc(C)c(NC(=O)COc2ccc(Cl)cc2Br)c1	i	0.89	10.2*	0.5	92.7	.	.
46	Cc1sc2nc(COC(=O)CNC(=O)c3ccc(C(C)(C)C)cc3)[nH]c(=O)c2c1C	i	1.07	0.2	-13.5	72.8	-40.0	112.5
47	O=C(Nc1cccc(C(F)(F)F)c1)c1cc(-c2cccs2)on1	i	0.89	-2.1	-5.5	104.0	.	.
48	O=C(Nc1ccccc1C(F)(F)F)c1cccnc1	i	1.16	3.2	-11.7	54.8	-90.0	119.4
49	CC(NC(=O)c1ccccc1NC(=O)CSc1nnnn1C)c1ccccc1 (stereo not given)	i	0.87	-3.2	0.2	98.2	21.7	109.6
50	COc1ccc(/C=N/NC(=O)CCNc2n[nH]c(=O)[nH]c2=O)c(OC)c1	i	1.12	.	8.0	98.4	2.7	86.0
51	COc1ccc(OCC(=O)Nc2ccc3oc(-c4ccncc4)nc3c2)cc1	i	0.88	.	1.8	117.8	25.0	132.3
52	Brc1ccc(C2=CSC3=NCCN23)cc1	i	1.01	.	-2.0	100.2	.	.
53	CCOC(=O)c1sc(NC(=O)CSc2nc3ccccc3o2)c(C(=O)OCC)c1C	i	0.96	-2.6	-4.8	101.9	20.0	129.5
54	Cc1ccccc1N(CC(N)=O)S(C)(=O)=O	i	0.91	-1.0	-3.9	110.5	9.7	111.4
55	Cc1cc(C(=O)NCCCN2CCOCC2)n(-c2ccccc2)n1	i	0.91	3.3	-2.2	104.5	.	.
56	O=C(COC(=O)c1ccc(Br)cc1)NCCN1C(=O)CSC1=O	i	1	.	-2.4	98.8	-61.5	127.7
57	COc1cccc(NC(C)C(=O)Nc2cc([N+](=O)[O-])ccc2Cl)c1 (stereo not given)	i	1.02	.	-0.2	103.3	-62.2	138.8
58	CCC(=O)Nc1cccc(-c2nc3ccccc3c(=O)o2)c1	.	.	-2.4	-2.8	108.1	9.1	86.9
59	Cc1ccc(-c2cc(C(=O)NCCCn3ccnc3)no2)cc1	i	0.98	.	-3.9	104.9	.	.
60	CN(CCC1CCOCC1)C(=O)CC1C(=O)NCCN1Cc1ccoc1 (stereo not given)	i	1.18	.	-5.8	103.8	.	.

(listing goes on)
cpd	canonical_smiles	HSV augment	HSV augment primary fold	GALR2 ag	PKD1 inh	RGS16-Gao	Insulin prom inh	Insulin prom inh cell count
61	CC(C)n1nnc2ccccc2c1=O	i	0.89	-1.3	0.5	90.0	.	.
62	O=c1cc(NS(=O)(=O)c2ccccc2)nc(SCc2ccccc2Cl)[nH]1	i	0.95	-2.4	0.8	96.0	20.6	147.4
63	Cc1ccc(Cl)c2c1NC(=O)C2(O)CC(=O)c1ccc(Br)cc1 (stereo not given)	i	1.07	-1.8	-3.3	104.0	17.9	95.5
64	O=C(NC1CCCCC1)C1CN(S(=O)(=O)c2ccccc2)CCN1S(=O)(=O)c1ccccc1 (stereo not given)	i	0.91	0.9	-6.2	100.0	27.3	75.1
65	c1ccc(C2(Cn3ccc4ccccc43)OCCO2)cc1	i	1.1	0.7	-6.0	92.8	-5.3	85.9
66	COC(=O)CSc1nc(C)c(C(C)=O)cc1C#N	i	0.92	-1.1	-7.2	112.8	.	.
67	Cc1ccc(NC(=O)Cn2ccsc2=N)cc1S(=O)(=O)N(C)C	i	1.1	.	-4.2	101.1	.	.
68	Cc1cc(C)n2nc(CC(=O)NC3CCCC(C)C3C)nc2n1 (stereo not given)	i	0.98	-2.2	-17.9	104.0	.	.
69	Clc1ccc(OCCN2CCN(c3ncnc4sccc34)CC2)cc1	i	0.98	0.0	8.8	102.7	5.3	99.8
70	CO/N=C/c1cc([N+](=O)[O-])ccc1Sc1ccc(C)cc1	i	0.89	0.1	4.8	76.2	-25.0	140.0
71	C=CCOc1c(CNC2CCCC2)cc(Cl)cc1OC	i	1.02	.	-3.4	104.7	.	.
72	Cc1nonc1NC(=O)c1ccc(Cl)c(S(=O)(=O)N2CCCCC2)c1	i	1.06	-1.5	1.0	107.0	14.3	150.2
73	COC(=O)COc1ccccc1C(=O)Nc1ccc(OC)cc1	i	1.09	-0.1	2.1	95.5	3.2	101.3
74	O=C1C(c2ccc(F)cc2)N(C2CCCCC2)C(=O)CN1C1CCCC1 (stereo not given)	i	0.95	-1.8	-1.8	90.7	18.2	70.0

Reprinted at random: five compounds from above, in no set order.
cpd	canonical_smiles	HSV augment	HSV augment primary fold	GALR2 ag	PKD1 inh	RGS16-Gao	Insulin prom inh	Insulin prom inh cell count
41	CCOC(=O)c1[nH]c2ccc(Br)cc2c1NC(=O)CCN1CCN(C(=O)OCC)CC1	i	0.987	-2.4	-2.9	107.2	.	.
9	O=C(/C=C/c1ccc(OCCCF)cc1)NCc1ccc(Cl)cc1	.	.	0.0	-9.4	95.2	-222.6	128.6
46	Cc1sc2nc(COC(=O)CNC(=O)c3ccc(C(C)(C)C)cc3)[nH]c(=O)c2c1C	i	1.07	0.2	-13.5	72.8	-40.0	112.5
51	COc1ccc(OCC(=O)Nc2ccc3oc(-c4ccncc4)nc3c2)cc1	i	0.88	.	1.8	117.8	25.0	132.3
52	Brc1ccc(C2=CSC3=NCCN23)cc1	i	1.01	.	-2.0	100.2	.	.
